Source: PubChem BioAssay
CDC25B-CDK2 inh: primary biochemical HTRF screen for blockers of M-phase inducer phosphatase 2 binding to CDK2/cyclin A. z-score (concentration not given with the values). P30305+P24941. HTRF CDC25B-CDK2/CyclinA binding, anti-His/anti-Flag; stronger effect = higher value. 94,000 tested, 0.72% active;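 note: score is relative to mean and SD of negative controls; strong numbers were not always called active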
TAR Tat displ: TAR RNA-Tat peptide displacers, HIV-1, primary screen, biochemical, FRET, FAM/TAMRA-labeled Tat | HIV-1 TAR RNA, Tat peptide displacement FRET; stronger effect = higher value | z-score (no concentration beside the values) | 100,000 tested, 0.6% active | AID 1259389, 2018;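 note: score is relative to mean and SD of negative controls; some compounds called inactive have numbers as strong as hits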
Numbers without * were called inactive; nt = no result given.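 Rule for the calls: active = z-score from 3 up in half or more of its runs; inactive = the rest.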 Hits appear at their usual frequency, and some 0.97% of all compounds hit somewhere here.

Start of the listing, in advance, four compounds:
SMILES	CDC25B-CDK2 inh	TAR Tat displ
C[C@]12CCC3c4ccc(O)cc4CCC3C1C[C@@H](O)[C@@H]2O (stereo partly drawn)	nt	0.83
O=C(Nc1cccc(C(=O)NCC2CCCO2)c1)C1=CSCCO1 (stereo not drawn)	nt	0.84
CC(C)n1c(SCC(=O)Nc2cccc(Cl)c2)nc2c(oc3ccccc32)c1=O	-2.5	0.9
O=C1CC(c2ccc(Br)cc2)C2=C(CCCC2=O)N1 (stereo not drawn)	-0.04	0.32

Results, from the start:
SMILES	CDC25B-CDK2 inh	TAR Tat displ
C[C@]12CCC3c4ccc(O)cc4CCC3C1C[C@@H](O)[C@@H]2O (stereo partly drawn)	nt	0.83
O=C(Nc1cccc(C(=O)NCC2CCCO2)c1)C1=CSCCO1 (stereo not drawn)	nt	0.84
CC(C)n1c(SCC(=O)Nc2cccc(Cl)c2)nc2c(oc3ccccc32)c1=O	-2.5	0.9
O=C1CC(c2ccc(Br)cc2)C2=C(CCCC2=O)N1 (stereo not drawn)	-0.04	0.32
NC(=O)c1cc(S(=O)(=O)NCC2CCCO2)cs1 (stereo not drawn)	nt	1.7
O=C(CCCn1nnc2cc(S(=O)(=O)N3CCCC3)ccc21)Nc1nccs1	nt	1.9
CC(=O)N1c2ccc(S(=O)(=O)Nc3cc(C)cc(C)c3)cc2CC1C (stereo not drawn)	nt	-0.01
CC1=C(C(=O)N2CCCC2)C2(CCC(C)CC2)OC1=O (stereo not drawn)	-0.91	nt
Cn1c(=O)[nH]c(=O)c2c1nc(NCc1ccccc1)n2CC(O)COc1cccc2ccccc12 (stereo not drawn)	-1.2	1.1
CCN1C(=O)c2ccccc2Sc2ccc(NC(=O)N3C(C)CCCC3C)cc21 (stereo not drawn)	-1.9	-0.78
CCOC(=O)C(C)Sc1nc(-c2ccc(F)cc2)nc2c1c(=O)n(C)c(=O)n2C (stereo not drawn)	-0.95	nt
Fc1ccc(CN2CCCN(Cc3ccc(F)cc3)C2c2ccco2)cc1	-1	nt
COc1cc(OC)c(C2C(C#N)=C(N)Oc3n[nH]c(-c4ccccc4)c32)c(OC)c1 (stereo not drawn)	-0.15	0.5
Cc1ccccc1-n1nc2c(c1NC(=O)c1c(-c3ccccc3Cl)noc1C)CS(=O)(=O)C2	-1.9	nt
O=C(Nc1ccc2c(c1)OCCO2)N1CCCC1c1cccs1 (stereo not drawn)	-1.8	1.2
CC1=C(c2ccc(C)cc2)S(=O)(=O)NC1=NC1CCCC(C)C1C (stereo not drawn)	-7.9	-1.3
O=C(Cn1cnc(S(=O)(=O)N2CCCC2)c1)Nc1cc(F)ccc1F	nt	0.73
O=C(Nc1ccccc1C(=O)O)c1cccc(N2C(=O)c3ccccc3C2=O)c1	-1.3	nt
O=C(O)CCC(=O)N1c2ccccc2NC2=C(C(=O)CC(c3ccc(F)cc3)C2)C1c1cccs1 (stereo not drawn)	-2.9	0.42
CC1CCCCC1NC(=O)Cn1ncc2c1-c1ccccc1OC2 (stereo not drawn)	0.17	1.2

Looked up above:
`CC1=C(C(=O)N2CCCC2)C2(CCC(C)CC2)OC1=O` (stereo not drawn) – CDC25B-CDK2 inh: -0.91
`CC1CCCCC1NC(=O)Cn1ncc2c1-c1ccccc1OC2` (stereo not drawn) – TAR Tat displ: 1.2
`Cc1ccccc1-n1nc2c(c1NC(=O)c1c(-c3ccccc3Cl)noc1C)CS(=O)(=O)C2` – CDC25B-CDK2 inh: -1.9
`Fc1ccc(CN2CCCN(Cc3ccc(F)cc3)C2c2ccco2)cc1` – CDC25B-CDK2 inh: -1

Going on with the list:
SMILES	CDC25B-CDK2 inh	TAR Tat displ
O=C(NCCc1ccsc1)c1cnn2ccccc12	-0.81	-0.97
CC1CC(C)CN(S(=O)(=O)c2ccc3c(c2)oc(=O)n3CC(=O)N2CCc3ccccc32)C1 (stereo not drawn)	-1.5	0.32
CC(=O)CC(C)=Nc1ccc(C(F)(F)F)cc1	-1.1	nt
CC(C)Nc1nc2c(S(=O)(=O)c3cccc(Cl)c3)nnn2c2ccsc12	nt	0.36
CCOC(=O)C(CC)Sc1ccc2nnc(-c3ccc(C)cc3)n2n1 (stereo not drawn)	-0.42	nt
CCCCN(CCCC)S(=O)(=O)c1ccc(CN2C(=O)c3cccnc3C2=O)cc1	nt	-0.5
Cc1cccc(-c2nc3nc(C)cc(N4CCc5ccccc5C4)n3n2)c1	-0.62	-2.8
O=C(O)c1cc(-c2ccccc2O)nc2n[nH]c(-c3ccc(Br)cc3)c12	nt	3.4
Fc1ccc(Oc2ncnc3c2oc2ccccc23)c(Cl)c1	nt	2.6
O=C(c1cc2c(=O)oc3ccccc3c2s1)N1CCN(c2cccc(Cl)c2)CC1	0.42	nt
Cc1cc(=O)n2c(n1)NC(Nc1ccc(C(C)C)cc1)=NC2c1ccccc1 (stereo not drawn)	-0.23	-0.37
Cc1csc(NC(=O)c2cc(CN3CCCC3)on2)n1	nt	-0.1
Cc1nc2c(c(C)nn2C(C)(C)C)c(C)c1CCC(=O)NCCCN1CCCC1=O	-2.5	0.78
O=C(/C=C/c1cccs1)NC(=S)N1CCOCC1	-2	nt
CCCN1C(=O)c2cc3oc(C)cc3n2CC1(C)C(=O)NC1CCCCC1 (stereo not drawn)	nt	3.3
CC(C)CC(=O)N1c2ccccc2NC2=C(C(=O)CC(C)(C)C2)C1c1ccco1 (stereo not drawn)	0.22	0.1
COc1cccc(N2CCN(c3nc(-c4ccc(OC)c(OC)c4)no3)CC2)c1	nt	0.03
Oc1ccc(Cl)cc1C1=NNC(c2ccc(Br)cc2)C1 (stereo not drawn)	-1.5	nt
Cc1ccc(N(C)S(=O)(=O)c2cc3[nH]c4c(c3cc2C)C(=O)CC(C)(C)C4)cc1	nt	-1.1
CC1CC(C)CN(S(=O)(=O)c2ccc3c(c2)N(CC(=O)N2CCOCC2)C(=O)CO3)C1 (stereo not drawn)	-0.39	0.41
COc1cccc(N2CCN(C(=O)c3cnc4sc(N5CCCC5)nn4c3=O)CC2)c1	nt	-0.61
CCn1nc(-n2cnnc2)c(NS(=O)(=O)c2cccc3nsnc23)c1C	0.24	0.69
C=CCN1C(=O)c2[nH]nc(-c3c(C)cc(C)cc3O)c2C1c1ccc(OCC)c(OC)c1 (stereo not drawn)	0.08	1.5
COc1ccc(-c2noc(COc3cccc(C)c3C)n2)cc1OC	-1.6	0.71
Fc1cc2c(c(CSc3nc4ccccc4s3)c1)OCOC2	-1.9	nt
O=C(Cn1ncc2c3ccccc3n(Cc3ccccc3)c2c1=O)N1CCN(Cc2ccccc2)CC1	-1.2	0.81
O=c1ccc(-c2ccc(S(=O)(=O)N(CCc3ccccc3)Cc3ccccc3)s2)n[nH]1	nt	-0.5
Cc1nc2nc(NCc3ccc(OC(C)C)cc3)[nH]n2c(=O)c1Cl	-0.84	-0.09
Fc1cccc(CN2CCN(CC3CC=CCC3)CC2)c1 (stereo not drawn)	-0.88	0.64
O=C(O)CCC(=O)N1CCC(Oc2nnnc3ccccc23)CC1	-1.9	0.72
CSc1scc(NS(=O)(=O)c2ccc(Cl)cc2)c1S(=O)(=O)C(C)C	-3.4	nt
c1ccc(CC2CCN(c3nc4ccccc4c4nncn34)CC2)cc1	nt	1.5
c1ccc(CCn2c(-c3ccco3)nc3ccccc32)cc1	-0.08	-0.01
CSc1ccc(C2C3=C(Nc4c2c(=O)[nH]c(=O)n4C)c2ccccc2C3=O)cc1 (stereo not drawn)	-3	7.4*
O=C(O)/C=C/C(=O)Nc1ccc2c(c1)OCO2	-0.58	nt
Cc1ccc(N2CC(O)=C(c3nc4ccc(C)cc4[nH]3)C2=N)c(C)c1	-1.1	1.1
COc1ccc(-c2cnc(C)o2)cc1S(=O)(=O)Nc1ccc(C(C)C)cc1	nt	1.3
Cc1nnsc1C(=O)NNS(=O)(=O)c1cc(C(F)(F)F)cc(C(F)(F)F)c1	-2.5	nt
Clc1ccccc1OCc1nn2c(Cc3ccccc3)nnc2s1	0.43	-0.38
CC(C)c1ccc(-n2nnc(-c3nc(-c4ccccc4Cl)no3)c2N)cc1	nt	0.81

Whole records from above. Order of values: CDC25B-CDK2 inh, TAR Tat displ
O=C(Nc1ccc2c(c1)OCCO2)N1CCCC1c1cccs1 (stereo not drawn) as listed: -1.8, 1.2
Fc1ccc(CN2CCCN(Cc3ccc(F)cc3)C2c2ccco2)cc1 as listed: -1, nt
CC(=O)CC(C)=Nc1ccc(C(F)(F)F)cc1 as listed: -1.1, nt

(cont.)
SMILES	CDC25B-CDK2 inh	TAR Tat displ
CNc1nc(NCc2cccc(Cl)c2)c2cnn(C)c2n1	nt	1
CN1C(C(=O)N2CCN(C(=O)C(C)(C)C)CC2)=CC(c2cccs2)=NS1(=O)=O	-1.7	1.7
CC1=CC(C)C2(CO)COC(c3ccc(O)cc3)C1C2C (stereo not drawn)	-0.35	3.9
CCCCN(C)S(=O)(=O)c1cc(-c2cc(C)no2)ccc1C(C)C	nt	-0.27
O=C(Cn1ncn2c(cc3cc(F)ccc32)c1=O)NCC1CCCO1 (stereo not drawn)	-1.4	-1.1
NC(=O)c1cnccc1C(F)(F)F	-1.3	nt
Clc1ccc(-c2noc3ncnc(N4CCN(Cc5ccccc5)CC4)c23)cc1	-0.98	0.28
Cn1nc(C(=O)N2CCC(N3CCCCC3)CC2)c2c1-c1ccccc1OC2	-1.3	1.5
CC1CCN(S(=O)(=O)c2ccc3[nH]c(=O)ccc3c2)CC1	nt	-0.99
CCc1nc(SCc2cc(=O)c3cccc(F)c3[nH]2)n[nH]1	nt	-0.37
Cn1c(=O)[nH]c(=O)c2c1nc(N1CCN(CCO)CC1)n2Cc1ccccc1Cl	2	1.6
COc1ccc(C2C(C(=O)OCC3CCCO3)=C(C)NC3=C2C(=O)CC(C)(C)C3)c(OC)c1 (stereo not drawn)	0.68	0.32
CC1(C)C(=O)NN(c2cccc(C(=O)O)c2)C1=O	-1.3	-0.12
Cc1ccc2nc(Cl)c3cc(C(=O)NC(C)CCc4ccco4)sc3c2c1 (stereo not drawn)	0.13	nt
CC(C(=O)Nc1ccc(F)cc1F)N1Cc2ccccc2C1=O (stereo not drawn)	nt	2.3
CCOC(=O)c1nc(NCCc2ccsc2)c2c(C)noc2n1	nt	0.04
COc1ccc(CN2CCN(Cc3ccc4c(c3)OCO4)CC2)c2ccccc12	-0.4	2.7
CCOC(=O)COc1cc2oc(=O)c3c(c2cc1CC)CCCC3	0.45	nt
CSc1ncc2c(=O)n(Cc3ccccc3)ccc2n1	-1.4	-1.6
CCc1nnc(NC(=O)Cn2c(=O)sc3ccccc32)s1	-0.08	nt
CCOC(=O)c1nc(N2CCC(C)CC2)c2oc3ccccc3c2n1	1.6	0.07
CC(NC(=O)c1cccc2c1C(=O)N(C1CCCCC1)C2)c1ccc2c(c1)OCCO2 (stereo not drawn)	-0.47	1.7
CC1(C)CC(=O)C2=C(C1)N(Cc1ccccc1)CN(Cc1ccco1)C2	-3.1	-0.09
O=c1c2cccnc2nc(SCc2ccc(F)cc2)n1CC1CCCO1 (stereo not drawn)	-1.1	0.06
Cc1nn(C(C)(C)C)c(C)c1/C=N/OC(=O)c1cccs1	-1.2	nt
CCC(C(=O)NCCC(C)C)n1nc(C)n2c(cc3sccc32)c1=O (stereo not drawn)	0.42	-0.48
CC(C)S(=O)(=O)c1csc(NC(=O)N2CCCCC2)c1Cl	-2.1	nt
Cn1nnc2c(NCc3ccccn3)ncnc21	nt	0.52
CN1CCN(C(=O)C2c3ccccc3Oc3ccccc32)CC1	-1.1	nt
CCOc1ccc(N(C)S(=O)(=O)c2ccc(-c3cc(C(F)(F)F)on3)s2)cc1	nt	2.2
Cc1cc(NC(=O)NC2(C(F)(F)F)Oc3ccccc3O2)no1	-0.95	nt
N#Cc1nc(/C=C/c2ccccc2)oc1N1CCN(C(=O)c2ccccc2Cl)CC1	-0.2	0.1
CCC(CO)Nc1ncnc2c1cnn2-c1cccc(Cl)c1 (stereo not drawn)	nt	0.22
COc1ccc2c(=O)cc(-c3ccccc3)oc2c1	-2.2	1
Cn1nnc(-c2cc(Cl)cc(Cl)c2)n1	-2.1	nt
O=C(CSc1ccc2nnc(-c3ccc(Cl)cc3)n2n1)NCC1CCCO1 (stereo not drawn)	-1.8	nt
Cc1nn(-c2ccc(N3CCCCC3)nn2)c(C)c1CCC(=O)NCCN1CCOCC1	nt	-1.6
COC(=O)c1nnn(-c2ccc(OC)c(OC)c2)c1C(=O)OC	-2.9	2.1
COC(=O)c1sc2cccc(F)c2c1S(=O)(=O)NCc1ccccn1	nt	-1.2
Cc1cc(SCC(=O)c2ccc(-c3ccccc3)cc2)nc(C)n1	-6.5	0.7

2 consecutive entries from above, quoted:
SMILES	CDC25B-CDK2 inh	TAR Tat displ
C[C@]12CCC3c4ccc(O)cc4CCC3C1C[C@@H](O)[C@@H]2O (stereo partly drawn)	nt	0.83
O=C(Nc1cccc(C(=O)NCC2CCCO2)c1)C1=CSCCO1 (stereo not drawn)	nt	0.84

(continued)
SMILES	CDC25B-CDK2 inh	TAR Tat displ
O=C(O)C1CCCN(S(=O)(=O)c2ccc(Cl)cc2)C1 (stereo not drawn)	-1.2	nt
CN1CCN(c2ccc(CNC(=O)c3cnc4ccccc4n3)cc2)CC1	-1.1	nt
CCOC(=O)c1cc(-c2ccc(S(=O)(=O)Nc3ccc(N(CC)CC)cc3C)s2)on1	nt	1.1
CCOC(=O)c1cnc(-c2cccs2)nc1NNC(=O)c1ccc(Cl)cc1	-0.06	nt
Cc1csc(NC(=O)C2(c3cccs3)CCOCC2)n1	nt	2
Cc1cc(C)c(NC(=O)CSCC(=O)c2ccc(Cl)cc2)c(C)c1	-0.63	nt
CN1CCN(c2nnc(-c3cccs3)c3ccccc23)CC1	-0.79	nt
CCCCOc1cc(CC2CNC(=O)N2)ccc1OC (stereo not drawn)	-1.6	nt
Cc1sc(NC(=O)c2ccccc2Cl)nc1-c1ccc(Cl)c(Cl)c1	-5.2	nt
COc1ccc(CN2COc3ccc(Br)cc3C2)cc1	2.3	1.9
C#CCN1C(=O)C(O)(CC(=O)c2ccc(OC)c(OC)c2)c2ccccc21 (stereo not drawn)	-1.6	1.7
